VDR inh – Inhibitors of the vitamin D receptor (VDR): qHTS. Vitamin D3 receptor (Homo sapiens), P11473. VDR-SRC2-3 peptide fluorescence polarization, 2 h. Potency, µM, inactives show max response, negative = inhibition, usual class: inhibitors. hit rate 0.93% among 400,000. AID 504847, 2011; active means well fitted inhibition curve with a large enough effect; inconclusive means small, poorly fitted or top-dose-only effect, or another doubt; inactive means no such curve, though single readings can be large or run the other way; further: series mostly up to about 120 µM
Target sequence (P11473 whole entry, looked up): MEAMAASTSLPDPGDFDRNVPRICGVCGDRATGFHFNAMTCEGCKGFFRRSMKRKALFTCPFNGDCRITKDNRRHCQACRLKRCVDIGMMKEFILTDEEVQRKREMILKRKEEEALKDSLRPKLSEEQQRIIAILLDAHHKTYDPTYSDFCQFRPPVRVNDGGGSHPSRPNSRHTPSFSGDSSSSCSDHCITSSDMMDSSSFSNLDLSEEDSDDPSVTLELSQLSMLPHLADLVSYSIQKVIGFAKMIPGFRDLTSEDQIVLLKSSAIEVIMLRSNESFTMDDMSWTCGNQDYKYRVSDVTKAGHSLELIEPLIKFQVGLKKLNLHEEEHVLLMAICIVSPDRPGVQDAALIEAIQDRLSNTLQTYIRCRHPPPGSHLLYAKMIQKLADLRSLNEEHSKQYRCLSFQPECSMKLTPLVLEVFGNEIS
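The screen uses fluorescence polarization to detect compounds that interfere with recruitment of the SRC2-3 coactivator peptide to VDR; plates are read after 2 h at room temperature.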
* = called active by the depositor; ? = inconclusive; & = joins results of further samples; [ ] = another dose, or the depositor's remark. On the % scale 0 is the no-effect control and ±100 the full control effect; potency means the concentration at half of the fitted maximal effect. These rows are one share of the data; count on the stated rates, not on these rows.

VDR inh | SMILES
-16.7% | C=CCC[C@H](Cc1ccc(F)cc1)C(=O)OC[C@H](Cc1c[nH]c2ccccc12)NC(=O)[C@H](CC=C)CC(=O)NCCO
5.7% | COc1cccc(C(c2c(NC(=O)c3ccccc3)sc(C)c2C)N2CCN(C)CC2)c1 (configuration not stated)
6.9% | CC(=O)Oc1ccc(Cn2cnc3cc4ccccc4cc32)cc1
-16.2% | CC1(C)C2CCC(C2)C1(C)NC(=O)CN1CCCC1 (configuration not stated)
-14.3% | O=C1c2ccccc2C(Nc2cccnc2)N1Cc1ccccc1Cl (configuration not stated)
-8.7% | CC(=O)Nc1ccc(NC(=O)c2cc(=O)c3ccc(C)cc3o2)cc1
9.4% | O=C(NCCCc1ccccc1)c1ccc(CS(=O)Cc2ccccc2Cl)o1 (configuration not stated)
-15.0% | COc1ccc(CCN(Cc2cccs2)S(=O)(=O)c2ccc(S(=O)(=O)N(C)C3CCCCC3)cc2)cc1OC
-11.2% | Cc1cc(C)c2c(c1)/C(=N/Nc1ccc(S(N)(=O)=O)cc1[N+](=O)[O-])CCC2
-9.4% | Cc1noc(C)c1S(=O)(=O)Nc1ccccc1Cl
15.1% | O=C(Nc1ccc(Cl)cc1)OCc1cncs1
2.9% | O=C(Cc1ccccc1)Nc1ccc(S(=O)(=O)N2CCOCC2)cc1
-4.1% | CCCc1cc(=O)[nH]c(SCC(=O)c2cc(C)n(CCOC)c2C)n1
4.1% | COc1cc(/C=C/c2noc(-c3ccccc3O)n2)cc(OC)c1OC
17.2% | COc1ccc(OC)c(CCNC(=O)c2cnn(-c3ccccc3)c2C2CCN(C(=O)OC(C)(C)C)CC2)c1
-11.4% | O=C(N/N=C/c1ccc(OC(F)F)cc1)C1=COCCO1
-0.9% | O=C(CC1(O)C(=O)N(CCc2ccccc2)c2ccc(Br)cc21)c1ccc(F)cc1 (configuration not stated)
0.7% | Cc1ccc(S(=O)(=O)c2nc(-c3ccc(F)cc3)oc2SCC(=O)NC2CCCCC2)cc1
? | CCOC(=O)c1cc(=O)c2c([N+](=O)[O-])ccc(OC)c2o1
6.8% | CCOC(=O)/C=C/[C@H]1CC2(CCO1)SCCCS2

(more compounds)
VDR inh | SMILES
-1.0% | CC(NC(=O)c1ccc([N+](=O)[O-])o1)C1CC2CCC1C2 (configuration not stated)
24.4% | CCOC(=O)/C=C1\CN(CCC(C)C)S(=O)(=O)c2ccccc21
10.2% | O=C(Cn1c(=O)n(Cc2ccco2)c(=O)c2oc3ccccc3c21)Nc1ccc(F)c(Cl)c1
-15.1% | O=c1c(Br)c(NCc2ccccc2)cnn1-c1ccc(F)cc1
7.0% | CCOC(=O)CCC(=O)N1CCOCCOCCN(C(=O)CCC(=O)OCC)CCOCCOCC1
-5.1% | CC1CCCCN1S(=O)(=O)c1cnc(Cl)c(Br)c1 (configuration not stated)
-22.9% | CCCN(CCC)CCNC(=O)C1CCCN(S(=O)(=O)c2cccc3nsnc23)C1 (configuration not stated)
-9.5% | O=S(=O)(c1ccc(Br)cc1F)N1CCC(O)CC1
? | CC(C)=NN/C(N)=N/C(=S)Nc1ccc(C)cc1
1.7% | COc1ccc(NC(=O)Nc2ccc3c(c2)C(=O)N([C@H](C)CO)C[C@H](C)[C@@H](CN(C)C(=O)Nc2ccccc2)O3)cc1
-11.8% | CCCCn1c(N)c(N(CC)C(=O)CCNC(=O)c2ccc(Cl)cc2)c(=O)[nH]c1=O
2.0% | COc1ccc(CCCC(=O)NC2CCCCC2C)c(C)c1 (configuration not stated)
-3.8% | COc1cc(/C=C/C(=O)OCC(=O)NC2CC2)cc(OC)c1OC
7.7% | COc1ccc(-c2sc3cc4c(cc3c2C#CC2(N)CCCCC2)OCO4)cc1
-3.1% | COc1ccc(C2Nc3ccccc3C(=O)N2NS(C)(=O)=O)cc1 (configuration not stated)
-17.0% | O=c1nc2s/c(=C\c3ccc(-c4ccccc4[N+](=O)[O-])o3)c(=O)n2nc1-c1ccccc1
-18.8% | N#CC(c1ccccc1)N(CCCCl)C(=O)c1ccccc1 (configuration not stated)
16.7% | CC(NC(=O)Nn1cnnc1)(C(F)(F)F)C(F)(F)F
0.0% | CCOc1ccc(NC(=O)CC2CC(C)(C)OC2=O)cc1 (configuration not stated)
-9.9% | COc1ccc2ccccc2c1/C=N/Nc1cccc(C(=O)O)c1

(listing goes on)
VDR inh | SMILES
-2.7% | C=CCNC(=S)N/N=C(\C)c1ccc(OC)cc1
-8.0% | O=C(c1ccccc1)N1CCN(c2ncnc3c2cnn3-c2ccccc2)CC1
4.2% | COCCCNC(=O)Cn1cc2c(n1)CCC(C)C2 (configuration not stated)
1.3% | CC(=O)Nc1cccc(N2C(=O)CC(N3CCC(C(=O)N4CCCCC4)CC3)C2=O)c1 (configuration not stated)
-5.2% | CCCn1c(=O)sc2cc(NC(=O)COc3ccc(Cl)cc3)ccc21
7.3% | O=C(O)c1cccc(S(=O)(=O)N2CCN(c3ccccn3)CC2)c1
-6.8% | NCCCCCc1nnc(SCc2ccc(Cl)c(Cl)c2)o1
0.6% | COc1cc2ccc(=O)oc2c(OC)c1OC
5.2% | Cc1cc2ncc(-c3cccc(Cl)c3)cn2n1
12.3% | Cc1ccccc1C(=O)Nc1cc(-c2ccc(Cl)cc2)nn1-c1ccccc1
-2.7% | O=C(Nc1nc2c(s1)CCCC2)c1cccc(S(=O)(=O)N2CCCc3ccccc32)c1
-8.4% | CCOc1ccc2[nH]c(=O)c(C(c3nnnn3C3CCCCC3)N3CCN(CC)CC3)cc2c1 (configuration not stated)
-11.5% | CCOc1ccc(S(=O)(=O)N2CCCC(C(=O)N3CCOCC3)C2)cc1C (configuration not stated)
-7.1% | COC(=O)c1cc2c(ccn2-c2ccc(F)cc2)n1CC(C)C
7.8% | CCC(C)(C)NC(=O)C(c1ccc(F)cc1)N(Cc1ccco1)C(=O)c1snc(C(N)=O)c1N (configuration not stated)
-4.4% | C/C(=N\NC(=O)C(=O)Nc1cccc(Cl)c1C)c1ccncc1
0.0% | COc1ccc(Cl)cc1C(=O)Nc1cccc2ncccc12
-4.8% | COc1ccc(S(=O)(=O)N2CCOCC2)c(Cl)c1Cl
-19.2% | COC(=O)CNC(=O)Cn1cnc2sc(C)c(S(=O)(=O)N3CCC(C)CC3)c2c1=O
-10.2% | O=C1NCCCC1C(=O)N/N=C/c1ccc([N+](=O)[O-])cc1 (configuration not stated)

(further entries)
VDR inh | SMILES
-7.8% | Cc1ccc(Nc2nnc(-c3ccc(C)c(S(=O)(=O)N4CCN(C)CC4)c3)c3ccccc23)cc1
19.1% | Cc1ccc(S(=O)(=O)N2CCCCC2)cc1NC(=O)CN1C(=O)c2ccccc2S1(=O)=O
4.1% | Cc1cc(=O)oc(C)c1C(=O)N1CCN(c2ccc(F)cc2)CC1
7.1% | COc1ccc(C2Nc3ccccc3C(=O)N2NC(C)=O)c(OC)c1 (configuration not stated)
5.62µM* | O=C(O)c1c(Cl)c(Cl)c(Cl)c(Cl)c1-c1c2cc(I)c(=O)c(I)c-2oc2c(I)c(O)c(I)cc12
-8.9% | C=CCOc1nc2sc(C)c(C)c2c(=O)n1-c1ccccc1
-1.0% | CN(C)/C=C/C(=O)C(F)(F)F
21.6% | Cc1cc(C)n2nc(SCCOc3ccc(F)cc3)nc2n1
-13.2% | Cc1occc(=O)c1OCc1c(F)cccc1Cl
6.9% | CCn1c(=N)n(CC(=O)c2ccc(Cl)c(Cl)c2)c2ccccc21
-1.1% | COc1ccc(Cn2c(SCc3ccc(C(=O)NC(C)c4ccccc4)cc3)nc3cccnc32)cc1 (configuration not stated)
-5.9% | CCOC(=O)COc1cc(OCC(=O)OCC)c2c3c(c(=O)oc2c1)CCCC3
-12.5% | CC(=O)Nc1nc(CC(C)C)cc2c1c(=O)oc1ccccc12
4.7% | Cc1nnc(NC(=O)CSc2nnc3scc(-c4ccc(C)c(C)c4)n23)s1
-6.5% | Cc1ccc(CNC(=O)Cn2c(=O)cc(C(F)(F)F)c3c(C)nn(C)c32)cc1
? | CCc1nn(CC(=O)NC(C)CCc2ccccc2)c(=O)c2cc3occc3n12 (configuration not stated)
13.5% | Cc1oc(-c2ccccc2Cl)[n+]([O-])c1C
6.1% | CCOC(=O)c1ccc(NC(=O)c2oc(=O)c3ccccc3c2-c2ccccc2)cc1
-2.0% | O=C(CCN1C(=O)/C(=C/c2ccccc2F)SC1=S)Nc1cccnc1
8.6% | CN1CCN(C(=O)CN(C)S(=O)(=O)c2ccc3ccccc3c2)CC1

Shown bar-delimited: 16 of the compounds above.
SMILES | VDR inh
O=C(O)c1c(Cl)c(Cl)c(Cl)c(Cl)c1-c1c2cc(I)c(=O)c(I)c-2oc2c(I)c(O)c(I)cc12 | 5.62µM*
C=CCOc1nc2sc(C)c(C)c2c(=O)n1-c1ccccc1 | -8.9%
CN(C)/C=C/C(=O)C(F)(F)F | -1.0%
Cc1cc(C)n2nc(SCCOc3ccc(F)cc3)nc2n1 | 21.6%
Cc1occc(=O)c1OCc1c(F)cccc1Cl | -13.2%
CCn1c(=N)n(CC(=O)c2ccc(Cl)c(Cl)c2)c2ccccc21 | 6.9%
COc1ccc(Cn2c(SCc3ccc(C(=O)NC(C)c4ccccc4)cc3)nc3cccnc32)cc1 (configuration not stated) | -1.1%
CCOC(=O)COc1cc(OCC(=O)OCC)c2c3c(c(=O)oc2c1)CCCC3 | -5.9%
CC(=O)Nc1nc(CC(C)C)cc2c1c(=O)oc1ccccc12 | -12.5%
Cc1nnc(NC(=O)CSc2nnc3scc(-c4ccc(C)c(C)c4)n23)s1 | 4.7%
Cc1ccc(CNC(=O)Cn2c(=O)cc(C(F)(F)F)c3c(C)nn(C)c32)cc1 | -6.5%
CCc1nn(CC(=O)NC(C)CCc2ccccc2)c(=O)c2cc3occc3n12 (configuration not stated) | ?
Cc1oc(-c2ccccc2Cl)[n+]([O-])c1C | 13.5%
CCOC(=O)c1ccc(NC(=O)c2oc(=O)c3ccccc3c2-c2ccccc2)cc1 | 6.1%
O=C(CCN1C(=O)/C(=C/c2ccccc2F)SC1=S)Nc1cccnc1 | -2.0%
CN1CCN(C(=O)CN(C)S(=O)(=O)c2ccc3ccccc3c2)CC1 | 8.6%

(continued)
VDR inh | SMILES
-2.0% | O=C(CN1CCN(Cc2ccccc2)CC1)Nc1ccc(Cl)cn1
0.1% | CCOc1cc(-c2conc2N)cc(OCC)c1OCC
-5.0% | COc1cc(C(=O)Nc2sc3c(c2C#N)CCN(C(C)=O)C3)cc(OC)c1OC
? | Cc1[nH]c(=S)c(C#N)c(C)c1Cc1ccccc1
-9.0% | Cc1cccc(C(=O)OCC(=O)Nc2ccc3c(c2)OCCO3)c1
32.4%[activator] | COC(=O)c1cccc(Nc2nc(-c3cccnc3)nc3ccccc23)c1
33.8%[activator] | Cc1c(C)c2ccc(OC(C)C(=O)NCCCN3CCOCC3)c(C)c2oc1=O (configuration not stated)
-13.5% | Cc1nc(NCCc2ccccc2)sc1C(=O)O
? | Cc1c(C(=O)c2cccc([N+](=O)[O-])c2)c2ccccn2c1CCC#N
6.1% | O=C(CCCNC(=O)c1ccc(Cl)cc1)Nc1ccccc1F
2.9% | Cc1n[nH]c(=O)c2c(NC(=O)COC(=O)c3cccc(OC(F)F)c3)oc(C)c12
7.3% | CCc1cc2c(=O)c(-c3ccc4c(c3)OCCO4)coc2c(CN2CCCCC2C)c1O (configuration not stated)
8.3% | O=C(NCc1ccncc1)c1cccc(S(=O)(=O)Nc2ccc(F)cc2)c1
10.5% | COc1cc(OC)c(NC(=O)CCc2nc(C3=CCN(Cc4cccc(Cl)c4)CC3)no2)cc1Cl
? | COc1ccc(C(O)(CCN2CCCCC2)C2CCCCC2)cc1 (configuration not stated)
-5.2% | CC1(C(=O)Nc2c(F)c(F)c(F)c(F)c2F)CC1(Br)Br (configuration not stated)
5.6% | COC(=O)c1ccc(N2CCN(S(=O)(=O)c3ccccc3)CC2)c([N+](=O)[O-])c1
9.4% | O=C(Nc1ccc(Br)c2cccnc12)c1cccc2ccccc12
19.9% | Cc1cc(C)n(-c2nc(SCCN(C)C)c3c4c(sc3n2)CCCC4)n1
-0.1%&5.4% | CC(C)n1cnc2c(NCc3ccccc3)nc(NCCO)nc21

Additional entries
VDR inh | SMILES
-1.6% | Cc1cccc(NC(=O)N2CCC3(CC2)Oc2ccccc2C(=O)N3Cc2ccccc2F)c1C
-3.4% | Cc1nnc(NC(=O)c2ccc(-c3ccc(Cl)cc3)o2)s1
-1.0% | Cc1cc(C)c(NC(=O)CSc2nc3nccnc3c(=O)n2CCc2c[nH]c3ccccc23)c(C)c1
-13.6% | Cc1ccc(NC(=O)CSc2nc(=O)n(CCCN(C)C)c3c2CCC3)c(C)c1
-21.5% | COc1ccc(C(CNS(=O)(=O)c2ccc(NC(C)=O)c(OC)c2)N2CCCCC2)cc1 (configuration not stated)
-2.3% | COC(=O)c1ccccc1NC(=O)Cn1c(=O)n(Cc2ccc(C(=O)NCc3ccc4c(c3)OCO4)cc2)c(=O)c2ccccc21
-24.5% | C/C(=N\NC(=O)c1ccc([N+](=O)[O-])cc1)c1cc2ccccc2oc1=O
2.8% | CC1CCCCC1NC(=O)CCS(=O)(=O)c1ccc(Cl)cc1 (configuration not stated)
-16.1% | C=CCn1c2ccccc2c(=O)c2cc(C#CC[C@@H](C)O)ccc21
-3.9% | COc1ccc2c(c1)CCc1c(C(=O)N3CC4(C)CC3CC(C)(C)C4)noc1-2 (configuration not stated)
2.1% | CCOC(=O)/C(C#N)=C/c1cc(C)n(-c2ccc(C)cc2)c1C
? | Cn1c(N)c(C(C[N+](=O)[O-])c2ccccc2Cl)c(=O)n(C)c1=O (configuration not stated)
-5.7% | CC(=O)N1CCOc2ccc(S(=O)(=O)Nc3ncccc3C)cc21
1.9% | O=C(OCCN1C(=O)c2ccccc2C1=O)c1cc(S(=O)(=O)N2CCOCC2)ccc1Cl
17.4% | Cn1c(SCc2ccccc2C#N)nnc1-c1ccncc1
-2.6%&-27.8% | Cc1cc2oc(=O)cc(-c3ccccc3)c2c(C)c1-c1ccc(C#N)cc1
-15.4% | COCCN(C(=O)COC(=O)Cc1cccc2ccccc12)c1c(N)n(Cc2ccccc2)c(=O)[nH]c1=O
